HPGD block – qHTS Assay for Inhibitors of HPGD (15-Hydroxyprostaglandin Dehydrogenase); purified HPGD, NADH fluorescence kinetic, PGE2 substrate; 150,000 compounds, 4.3% hits; Potency, µM, for the others: at the highest dose activity change, negative = inhibition, actives largely listed as inhibitors; active = well fitted inhibition curve with a large enough effect (not every such curve was filed as active); inconclusive = small, poorly fitted or top-dose-only effect, or another doubt; inactive = no such curve, though single readings can be large or run the other way;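 note: top concentration of the series not given in the record; plate controls included wells without enzyme; inactives centre near -10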
Target sequence (P15428 whole entry, looked up): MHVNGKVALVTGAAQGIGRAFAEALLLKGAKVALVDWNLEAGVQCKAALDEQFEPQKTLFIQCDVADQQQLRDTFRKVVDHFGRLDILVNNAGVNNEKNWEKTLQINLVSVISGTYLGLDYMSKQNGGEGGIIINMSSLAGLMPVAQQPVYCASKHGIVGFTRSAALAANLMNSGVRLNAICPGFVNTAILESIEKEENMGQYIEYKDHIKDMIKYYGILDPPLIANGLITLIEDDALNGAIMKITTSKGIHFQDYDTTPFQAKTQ
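20 nM HPGD preincubated 15 min at room temperature with compound in 50 mM Tris-HCl pH 8, 0.01% Tween 20. Started with 1 mM NAD+ and 30 uM prostaglandin E2; NADH fluorescence (360/450 nm) read 5 times over 30-s intervals, last minus first.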
Starred values were filed as active, the others as inactive; u = inconclusive. % is set by controls: 0 for no effect and ±100 for the full control effect; potency is the fitted concentration of half-maximal effect. An excerpt; the hit share may differ from the screen's.

HPGD block | SMILES
-15% | CCCC1C2C(=O)N(c3ccccc3OC)C(=O)C2ON1c1ccccc1 (configuration not stated)
-22% | O=C1c2ccccc2C(=O)N1CC1=NCCc2ccccc21
-8% | Cc1ccc(N(CC(=O)NCc2ccco2)C(=O)CCC(=O)Nc2ccccn2)cc1C
-7% | CCN(CC)S(=O)(=O)c1ccc(/C=C/C(=O)Nc2ccc(F)c(F)c2F)cc1
u | COc1ccc(-c2cc3ccc(OCc4nn[nH]n4)cc3oc2=O)cc1OC
0% | CCOC(=O)N1CCC(NC(=O)C2CCN(S(=O)(=O)c3cccs3)CC2)CC1
-13% | CN(c1cccc(NC(=O)CCSc2ccccc2)c1)S(C)(=O)=O
2% | O=C1CCc2cc(S(=O)(=O)N3CCN(c4cccc(C(F)(F)F)c4)CC3)ccc2N1
u | CCCC/C=C/C(NC(=O)OCc1ccccc1Cl)c1ccccc1 (configuration not stated)
-7% | CCN1CCN(S(=O)(=O)c2cccs2)CC1
1% | CCOc1ccccc1OCC(=O)Nc1nnc(C)s1
-4% | COc1ccc(OC)c(C(O)CNC(=O)CN)c1 (configuration not stated)
32µM* | COc1ccccc1OCC(=O)Sc1ccc(C)cc1
5% | Cn1cc(/C=C2/SC(=O)N(CC(=O)Nc3ccc4c(c3)OCO4)C2=O)c2ccccc21
-6% | CC(C)(C)NC(=O)NC(=O)Cn1ccsc1=N
-13% | CCCc1cc(-c2nc(-c3ccc(Br)cc3)cs2)ccn1
-22% | Cc1cc(C)cc(NC(=S)NCc2ccc3[nH]c4c(c3c2)CCCC4)c1
-7% | Cc1cccc(NC(=O)C2CCCN(S(=O)(=O)c3cccc4nsnc34)C2)n1 (configuration not stated)
-3% | CC(=O)N(C)c1ccc(OCC(O)COc2ccc(N(C)C(C)=O)cc2)cc1
-13% | Cn1c(=O)c2cc(S(=O)(=O)NC(C(=O)Nc3cccnc3)c3ccccc3)ccc2n(C)c1=O (configuration not stated)
-10% | COc1cccc(C2[C@H](C)C3(CCN2C)OCCO3)c1 (some centres not stated)
-13% | CC(C)(C)c1cc(N/C=C\c2nnnn2-c2ccc(Br)cc2)no1
2% | Cc1ccc2c(c1)-c1c(cnn1CC(=O)N(Cc1ccco1)C1CCCCC1)CO2
-17% | O=C(COc1ccc(F)cc1)Nc1ccc(-n2cnnn2)cc1
-6% | Nc1cccc(C(=O)Nc2ccccc2Cl)c1
-3% | Cc1nc2sc(C(c3cccc(F)c3)N3CCC(C)CC3)c(O)n2n1 (configuration not stated)
-20% | Cc1ccc2c(c1)N=C(c1ccc(Cl)cc1)CO2
-18% | CCN(CC)CCNC(=O)Cc1c(C(=O)O)n(C)c2ccccc12
-22% | CCOC(=O)CCc1c(C)c(C#N)c2nc3ccccc3n2c1-n1cnc2ccccc21
-10% | O=C(NCCCN1CCCC1=O)C1CCN(S(=O)(=O)N2CCOCC2)CC1
0% | Cc1ccc2c(c1)N(CC(=O)NCc1cccs1)C(=O)CO2
-11% | CNC(=S)NNC(=O)Cn1ccc(C)n1
-4% | COC(=O)c1c(C(=O)OC)c(-c2ccc(C)cc2)n2c1CS(=O)(=O)C2
-7% | CCOC(=O)c1ccc(N=Cc2nc3ccccc3n2C)cc1
16µM* | Cn1c(N)c(C(=O)COC(=O)c2ccc(Cl)c(S(=O)(=O)N3CCCCC3)c2)c(=O)n(C)c1=O
-13% | Cc1ccc(-c2noc(CSc3nnnn3C3CCCCC3)n2)cc1
u | CC1(C)Cc2c(C#N)c(N3CCN(C(=O)c4ccco4)CC3)nc(-c3ccco3)c2CS1
-14% | O=C(Nc1ccccc1Cl)N1CCn2c(nc3ccccc32)C1
-30% | COC(=O)c1cn(NC(=O)C2CCCO2)c(=O)c2ccccc12 (configuration not stated)
u | CSc1ccc(C2C(C#N)=C(N)Oc3c2ccc(=O)c2c(C)oc(C)c32)cc1 (configuration not stated)
-12% | O=C(CCCSc1nc2ccccc2[nH]1)NCc1ccco1
14µM* | C=CCNc1nnc(SC2CC(=O)N(c3ccc(OCCC)cc3)C2=O)s1 (configuration not stated)
-6% | Cc1cc(C)cc(NC(=O)C2CCCC2)c1
-3% | CN(C)CCOC(=O)C12CC3(C)CC(C)(CC(C)(C3)C1)C2
u | O=C(/C=C/c1ccc(Cl)cc1Cl)Nc1cccc(S(=O)(=O)NC2=NCCCCC2)c1
4% | O=C(CSc1nccn1-c1ccc(Cl)cc1)NCc1ccc2c(c1)OCO2
-7% | N#Cc1cn(OCc2ccccc2)c(=O)[nH]c1=O
-5% | CCOC(=O)C1CCN(C(=O)Cn2cc(C(=O)C3CC3)c3ccccc32)CC1
-18% | C=CCn1c(NCc2ccccc2)nc2ccccc21
-6% | Cc1cc(OCC(=O)O)c(Cl)cc1Cl
-1% | O=C(Cn1cc(C(=O)c2cccs2)c2ccccc21)NCC1CCCO1 (configuration not stated)
-4% | Cc1noc(C)c1CN1C(=O)NC2(CCCCCCC2)C1=O
-4% | CCNC(=O)CCSc1nc2cc(Cl)ccc2o1
-19% | O=C(NCCN1C(=O)S/C(=C\c2ccccc2F)C1=O)C1CCN(S(=O)(=O)c2cccs2)CC1
0% | Cc1c(NC(=O)C23CC4CC(CC(C)(C4)C2)C3)c(=O)n(-c2ccccc2)n1C
-12% | CCOC(=O)c1ccc(NS(=O)(=O)c2ccc3c(c2)oc(=O)n3C)cc1
-1% | Cc1noc(C)c1COc1cccc(C(=O)N2CCN(C/C=C/c3ccccc3)CC2)c1
-12% | Cc1ccc(C(=O)CN(C(=O)c2ccc(Cl)c(Cl)c2)N2C(=O)C3CCCCC3C2=O)cc1 (configuration not stated)
-15% | COc1ccc(-c2cc(=O)c3c(OC)c(OC)c(OC)c(OC)c3o2)cc1
-5% | CCc1nnc(NC(=O)c2ccc(COc3ccccc3)o2)s1

Two of these compounds in another layout:
Compound | HPGD block
Cc1cc(OCC(=O)O)c(Cl)cc1Cl | -6%
O=C(Cn1cc(C(=O)c2cccs2)c2ccccc21)NCC1CCCO1 (configuration not stated) | -1%

Single entries from the results shown:
`O=C1CCc2cc(S(=O)(=O)N3CCN(c4cccc(C(F)(F)F)c4)CC3)ccc2N1` in HPGD block is entered as 2%
`COc1ccc(-c2cc(=O)c3c(OC)c(OC)c(OC)c(OC)c3o2)cc1` in HPGD block is entered as -15%
`Cn1cc(/C=C2/SC(=O)N(CC(=O)Nc3ccc4c(c3)OCO4)C2=O)c2ccccc21` in HPGD block is entered as 5%
`CCN1CCN(S(=O)(=O)c2cccs2)CC1` in HPGD block is entered as -7%
`COc1cccc(C2[C@H](C)C3(CCN2C)OCCO3)c1` (some centres not stated) in HPGD block is entered as -10%

Remaining list, next part
HPGD block | SMILES
-8% | COC(=O)c1sccc1NC(=O)c1csc2c1CCCC2
-4% | COc1ccc(N(CC(=O)NC(C)(C)C)S(=O)(=O)c2ccccc2)cc1OC
-12% | O=C(NC1CC1)c1ccc(CSCc2cccc(F)c2)o1
u | CCC(CC)C(=O)Nc1cccc(/C(C)=N\NC(=O)c2ccc(C)s2)c1
-29% | COCCN1CCn2c(nc3cc(NC(=O)c4cccs4)ccc32)C1
-8% | C=CCn1c(N)c(C(=O)NCc2ccco2)sc1=S
u | CCOC(=O)c1c(NC(=O)c2cc3n(n2)C(C(F)(F)F)CC(c2ccccc2)N3)sc(C)c1C (configuration not stated)
0% | Cc1ccc2c(c1)C1(C(=O)N2C)N2CC3(C)CN1CC(C)(C2)C3=O (configuration not stated)
-1% | Cc1nn(Cc2c(Cl)cccc2Cl)c(C)c1NC(=O)Cn1nc([N+](=O)[O-])c(Cl)c1C
-24% | Cc1cc(C(=O)COC(=O)Cc2n[nH]c(=O)c3ccccc23)c(C)n1-c1cccc(C(F)(F)F)c1
-7% | NC[C@@]12CCCC1C1CCC2C1 (some centres not stated)
-1% | COc1ccc(CNCC(O)COCc2cccs2)cc1 (configuration not stated)
1% | CCOC(=O)N1CCN(C(=O)CNS(=O)(=O)c2cccs2)CC1
-10% | O=S1(=O)CCN(Cc2ccccc2Cl)CC1
-3% | CCCn1c(NCc2cccs2)nc2ccccc21
-3% | O=C(CCN1CCN(c2ccccc2)CC1)Nc1ccc2c(c1)OCO2
4.5µM* | Cc1cc(-c2nsc(=O)o2)c(S(C)(=O)=O)s1
-11% | Cc1cc(C(=O)COC(=O)CC2Sc3ccccc3NC2=O)c(C)n1-c1cccc(C(F)(F)F)c1 (configuration not stated)
-3% | CCN(CC)C(=O)c1n[nH]c(=O)c2ccccc12
u | CC(C)(C)C(=O)Nc1cc2nn(-c3ccccc3)nc2cc1Cl

Molecules listed so far containing a COOH group:
HPGD block | SMILES
-18% | CCN(CC)CCNC(=O)Cc1c(C(=O)O)n(C)c2ccccc12
-6% | Cc1cc(OCC(=O)O)c(Cl)cc1Cl

Next compounds follow.
HPGD block | SMILES
u | CC1(C)Cc2c(ccc3ccccc23)C(=O)N1
-5% | CCOc1ccc(N2CCCCn3c2nc2c3c(=O)[nH]c(=O)n2C)cc1
-3% | COc1cccc(CNC(=O)Cn2cc3c(n2)CCCC3)c1
-10% | COc1ccccc1-n1c(SCC(N)=O)nc2c(c1=O)SCC2
-20% | CCc1ccc(NC(=S)NC2CCN(Cc3ccccc3)CC2)cc1
-5% | CC(=O)c1ccc(CCCC(=O)O)cc1
14µM* | C=CCn1c(N)c(C(=O)NCCC2=CCCCC2)sc1=S
u | CC(C)CN1C(=O)c2ccc(NC(=O)c3cccs3)cc2C1=O
25µM* | COCCNC(=O)c1cc(-c2cccc(OC)c2)on1
-24% | CCn1c(SCC(=O)Nc2nccs2)nnc1-c1cc2cccc(OC)c2o1
-10% | Cn1cc(C(=O)N2CCN(c3ccccn3)CC2)c(=O)c2cc(S(=O)(=O)N3CCOCC3)ccc21
-16% | CN(C)c1ccc(/C=C2\NC(=S)N(Cc3ccccc3)C2=O)cc1
-23% | CC1=CC(C)(C)N(C(=O)c2ccc(F)cc2)c2cc3c(cc21)OCO3
-3% | Cc1ccc(N2CN(Cc3cccnc3)CNC2=S)cc1
-18% | Cc1ccc(C(=O)N/C(=C/c2cccs2)C(=O)NCCc2c[nH]c3ccccc23)cc1
-16% | CN(C(=O)c1cc2n(n1)C(C(F)(F)F)CC(c1ccco1)N2)c1ccccc1 (configuration not stated)
-20% | CC1(C)CC(=O)C=C(Nc2ccc(F)cc2F)C1
-5% | COc1nc(NCC(C)C)nc(Oc2ccc(OCc3ccccc3)nn2)n1
u | CC1=CC(c2ccc(Cl)cc2)n2nc(N3C(=O)CCC3=O)nc2N1 (configuration not stated)
u | Cc1cc(C)n(-c2ccc(C(=O)C(C#N)c3nc4ccccc4n3C)cc2)n1 (configuration not stated)
-9% | COc1ccc(S(=O)(=O)N2CCCC2)c(C)c1C
-9% | O=C(O)CCc1ccc(-c2ccc(Cl)cc2)n1CC(=O)O
-9% | COc1cc(C(=O)Nc2ccc3c(c2)OCCO3)ccc1OC(F)F
-10% | COc1ccc(/C(O)=C/c2nc3ccccc3n(-c3ccccc3)c2=O)cc1
u | CC1CSc2nc3sc4c(c3c(=O)n21)CCCC4 (configuration not stated)
-8% | CCCCN(C)CCNS(=O)(=O)c1ccc2c(c1)n(C)c(=O)c(=O)n2C
-5% | O=C(NCC1CCCO1)c1ccc2c(c1)N(Cc1ccccc1)C(=O)CS2=O (configuration not stated)
u | CC(C)C(=O)c1cc2c(cc1NC(=O)c1cccs1)OCCO2
4% | c1ccc(C(c2ccccn2)c2ccccn2)cc1
-18% | O=C(CSc1nnc(-c2cccs2)o1)Nc1cccc(S(=O)(=O)N2CCCCC2)c1
-14% | COc1cccc(OC)c1C(=O)Nc1ccc2c(c1)OCCO2
20µM* | Cn1c(-c2sc3ccccc3c2Cl)n[nH]c1=S
-14% | CCN1CCN(C(=S)Nc2ccc([N+](=O)[O-])cc2)CC1
-2% | Cn1nnc2cc(C(=O)N3CCC(c4ccccc4)C3)ccc21 (configuration not stated)
-4% | Cc1ccc(S(=O)(=O)N2CCCC2)cc1C(=O)O
-15% | COc1ccc(OCC(=O)NC(=S)Nc2ccccc2F)cc1
-8% | Nc1nnnn1/N=C/c1ccccn1
-25% | COc1ccc(Nc2nc(NCc3ccco3)nc(N/N=C/c3ccccc3)n2)cc1
-28% | COC(=O)c1sccc1NC(=O)c1ccc(Br)o1
-11% | COc1ccc(-c2noc(Cc3cccs3)n2)cc1

Structural class, the compounds so far containing bromine (three)
HPGD block | SMILES
-13% | CCCc1cc(-c2nc(-c3ccc(Br)cc3)cs2)ccn1
-13% | CC(C)(C)c1cc(N/C=C\c2nnnn2-c2ccc(Br)cc2)no1
-28% | COC(=O)c1sccc1NC(=O)c1ccc(Br)o1

Next part:
HPGD block | SMILES
0% | COC(=O)C1=C(N)Oc2cc(C)n(CCCn3ccnc3)c(=O)c2C1c1ccc(Cl)cc1 (configuration not stated)
-14% | CC(C)CC(=O)NC(c1ccccc1Cl)c1c(O)ccc2ccccc12 (configuration not stated)
-12% | COC1Cc2ccccc2N(C(=O)N2CCN(CCO)CC2)c2ccccc21 (configuration not stated)
-10% | O=C(CN1C(=O)C2C3C=CC(C3)C2C1=O)Nc1nc(SCc2ccc(Cl)cc2)n[nH]1 (configuration not stated)
-17% | COC(=O)CSc1nc2nc(C)c(Br)cc2[nH]1
-8% | CC(=O)N1C(=O)CC(C)N(C(C)=O)c2ccc([N+](=O)[O-])cc21 (configuration not stated)
-13% | CCCNS(=O)(=O)c1ccc(CCC(=O)NCc2ccco2)cc1
-2% | O=C(Nc1ccccc1C(=O)N1CCOCC1)c1cccc(S(=O)(=O)N2CCCC2)c1
-7% | Nc1nc2c(nc(Br)n2[C@@H]2O[C@H]3COP(=O)(O)O[C@H]3[C@@H]2O)c(=O)[nH]1
-5% | O=C(CN(C(=O)c1ccc2c(c1)OCCO2)c1ccccc1)NCC1CCCO1 (configuration not stated)

Screens (PubChem BioAssay)
